Screening data: PubChem BioAssay, ICCB-Longwood Screening Facility, Harvard Medical School
GIV Gai3 FP – inhibitors of GIV peptide binding to Galpha-i3, primary screen, biochemical, fluorescence polarization, FITC-GIV GBA peptide, rat Galphai3; Guanine nucleotide-binding protein G(i) subunit alpha-3 (Rattus norvegicus), P08753; 90 min; stronger effect = lower value; scaled: aluminum fluoride 0%, vehicle 100%; percent of control (FP), % (concentration not given with the values); 0.42% of 210,000 active; AID 1224905, 2016;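 active = replicate mean at 85% of control or lower, very high polarization wells dropped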;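 also: wells of about 15 µL received 100 nL stock; the first replicate is given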
Target sequence (P08753 whole entry, looked up): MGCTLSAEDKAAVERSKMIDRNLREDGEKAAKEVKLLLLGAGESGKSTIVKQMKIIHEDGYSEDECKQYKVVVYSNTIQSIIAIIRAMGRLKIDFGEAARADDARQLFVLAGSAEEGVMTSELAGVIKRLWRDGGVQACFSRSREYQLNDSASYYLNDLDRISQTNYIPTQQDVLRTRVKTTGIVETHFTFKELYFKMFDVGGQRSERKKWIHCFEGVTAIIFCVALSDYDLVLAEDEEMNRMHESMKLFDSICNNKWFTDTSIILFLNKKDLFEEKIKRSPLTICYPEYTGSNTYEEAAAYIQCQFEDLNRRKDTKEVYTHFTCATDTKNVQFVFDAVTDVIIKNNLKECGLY
An asterisk follows results filed as active.

SMILES | GIV Gai3 FP
CC1(C)Cc2c(c(-c3ccccc3)nc3oc(C(=O)c4ccccc4)c(N)c23)CO1 | 114
CCCn1ccc(NS(C)(=O)=O)n1 | 105
Fc1ccc([C@H]2C[C@@H](c3ccccc3)Nc3nnnn32)cc1 | 100
NC(=O)C1OC2OC3(CCCCC3)OC2C2OC3(CCCCC3)OC12 (configuration not stated) | 125
Clc1ccc(C2CC(c3cccs3)=Nc3ccccc3S2)cc1 (configuration not stated) | 116
Cc1cccc(C)c1NC(=O)C1CCCN(S(=O)(=O)Cc2ccc(F)cc2)C1 (configuration not stated) | 102
CN1c2ccccc2C(C)(C)C12C=Nc1c(cc(N3CCc4ccccc43)c3ccccc13)O2 (configuration not stated) | 109
COc1ccc(-n2ccc(=O)c(-c3nc(-c4ccccc4)no3)n2)cc1 | 92
O=S(=O)(c1ccc(Br)cc1)N1CCCN(S(=O)(=O)c2ccc(Br)cc2)CC1 | 119
Cc1nc2sccn2c(=O)c1NC(=O)c1ccccc1Br | 103
CCOc1ccc(-n2c(CNC(=O)c3cc(OC)c(OC)c(OC)c3)nnc2SCC(=O)Nc2nccs2)cc1 | 103
CC(C)NC(=O)/C(=C/c1cn(-c2ccccc2)nc1-c1cccc([N+](=O)[O-])c1)NC(=O)c1ccccc1 | 105
O=C(Nc1cc(F)c2nc(N3CCOCC3)ccc2c1)C1CCC1 | 107
Cc1ccc(-c2nc3ccc(C)cc3nc2-c2ccc(C)cc2)cc1 | 109
COc1cc2c(cc1OC)n(CC(=O)c1cccc(Cl)c1)c(=O)n1nc(-c3ccccc3)nc21 | 103
CCN1CCCC1CNC(=O)c1sc2ncnc(N3CCN(c4ccccc4)CC3)c2c1C (configuration not stated) | 100
Cc1ccc(-c2nn3c(=O)cc(CN4CCN(C(=O)Nc5ccc6c(c5)OCCO6)CC4)nc3s2)cc1 | 99
Cc1ccc(C(C)NC(=O)c2cccc(Oc3cc(-c4ccccc4)ncn3)c2)cc1 (configuration not stated) | 97
Cc1ccc(C)c(CN2CCCN(CC(=O)Nc3ccc(Br)c(C)c3)S2(=O)=O)c1 | 112
Cc1cc(C)n(-c2nc3c(c(=O)n2CC(=O)N2CCOCC2)CCC3)n1 | 101
CC12CCC(C(=O)N3CCCC3)(OC1=O)C2(C)C (configuration not stated) | 104
CCc1nc(SCC(=O)N2CCCCC2)c2c(=O)n(C)c(=O)n(C)c2n1 | 103
O=C(c1cccs1)N(NC(=O)C(O)(c1ccc(Cl)cc1)c1ccc(Cl)cc1)c1ccccc1 | 105
CCCCn1c(CNC(=O)COc2ccccc2)nnc1SC(C)C(=O)Nc1sc2c(c1C(=O)OCC)CCC2 (configuration not stated) | 101
O=C(c1cnn2c(C(F)(F)F)cc(-c3ccco3)nc12)N1CCN(c2cccc(Cl)c2)CC1 | 116
SMILES | GIV Gai3 FP
CCOc1ccc(NC(=O)CSc2nc3ccccc3n2S(C)(=O)=O)cc1 | 110
CCn1ccc(-c2nc(CCS(=O)(=O)c3ccccc3)no2)n1 | 103
COc1c(-c2ccccc2)sc2nc(C)cc(C)[n+]12 | 109
CCOC(=O)N1CCN(C(=O)c2sc3ncnc(N(CC)CC)c3c2C)CC1 | 104
COc1ccc(Oc2c(C(F)(F)F)oc3cc(OC(=O)c4ccco4)ccc3c2=O)cc1 | 110
CCC(=O)Nc1nc2cc(NC(=O)Nc3cccc(Cl)c3)ccc2s1 | 107
CCOC(=O)c1c(NC(=O)C(C)Sc2nnc(CNC(=O)c3cc(OC)cc(OC)c3)n2C)sc2c1CCC2 (configuration not stated) | 108
COC(=O)C1=CN(Cc2ccc(F)cc2)C=C(C(=O)OC)C1c1cc(Br)c(O)c(OC)c1 | 104
O=C(NCc1ccccc1)c1cc(NS(=O)(=O)c2ccc(Cl)cc2)ccc1N1CCNCC1 | 99
COc1ccc(C2CC(=O)Nc3c2c(C)nn3-c2ccc3nnc(C)n3n2)cc1 (configuration not stated) | 100
CCOC(=O)C1CCN(C(=O)c2sc3ncn(CCOC)c(=O)c3c2C)CC1 | 115
COc1ccc(NC(=O)c2nnc(C3CCN(C(=O)Nc4ccc(C)c(Cl)c4)CC3)s2)cc1 | 105
O=C(CCn1c(SCc2cc(=O)n3cc(Cl)ccc3n2)nc2ccccc2c1=O)NCc1ccc(F)cc1 | 105
CCS(=O)(=O)N1CCCN(C(=O)C(C)(C)C)CC1 | 97
C=CCNC(=O)c1ccc2c(c1)NC(=O)CN2 | 108
O=C(NCC1CCCO1)c1ccc2c(c1)ncn2-c1ccc(OCc2ccccc2)cc1 (configuration not stated) | 102
CC(C)CCNC(=O)C1CCCN(C(=O)c2ccc(NC(=O)C(C)(C)C)cc2)C1 (configuration not stated) | 110
O=c1n(Cc2ccc(F)cc2Cl)nc2c(S(=O)(=O)N3CCCC3)cccn12 | 111
CCOC(=O)C1=C(C(=O)OCC)SC(=C2C(=S)C(C)(C)N(C(=O)c3ccc(C(C)(C)C)cc3)c3ccc(OCC)cc32)S1 | 98
COc1ccc(OC)c(S(=O)(=O)N2CCCC2c2c(C)noc2C)c1 (configuration not stated) | 100
COc1cc(C2C(C#N)=C(N)N(c3ccc(F)cc3)C3=C2C(=O)CCC3)cc(OC)c1OC (configuration not stated) | 113
C=CCOc1ccc(C2CC(=O)Nc3c2cnn3-c2ccc3nnc(C)n3n2)cc1 (configuration not stated) | 105
O=C(NC1CCCC1)C1CCN(c2ncnc3onc(-c4cccc(F)c4)c23)CC1 | 101
N#CC1=C(N)OC(c2ccccc2)=C(Sc2ccc([N+](=O)[O-])cc2)C1c1cccnc1 (configuration not stated) | 108
Cc1ccccc1Nc1ncnc2onc(C)c12 | 100
SMILES | GIV Gai3 FP
CC1(C)CC(=O)C2=C(C1)Nc1ccc3ccccc3c1C2c1ccc2c(c1)OCO2 (configuration not stated) | 108
Cc1cc(C2CCCN2C(=O)NC(C)C)no1 (configuration not stated) | 101
Cc1ccc(Cl)cc1NC(=O)/C(=C/c1ccc2c(c1)OCO2)NC(=O)c1ccc(Br)cc1 | 101
CC1=C(c2ccc(F)cc2)S(=O)(=O)N=C1N1CCCN(S(=O)(=O)C(C)C)CC1 | 100
O=C(CSc1nc2cc(C(=O)NCC3CCCO3)ccc2c(=O)n1Cc1ccco1)NC1CCCC1 (configuration not stated) | 105
COC(=O)C1=CN(C2CC2)c2cc(N3CCC4(CC3)OCCO4)c(F)cc2S1(=O)=O | 98
COc1cccc(N2CCN(C(=O)c3cc4nc(-c5ccc6c(c5)OCO6)cc(C(F)(F)F)n4n3)CC2)c1 | 117
COc1ccc(NC(=O)c2nnc(C3CCN(C(=O)c4cccc(OC)c4)CC3)s2)cc1 | 106
CCN1CCN(CCNC(=O)Cn2ccc3c(C)nn(C)c3c2=O)CC1 | 107
CCc1c(/C(C)=N/O)oc2ccc3c(C)cc(=O)oc3c12 | 107
NC(=O)C1CCN(C(=O)c2ccc3c(=O)n(-c4cc(C(F)(F)F)ccc4Cl)c(=S)[nH]c3c2)CC1 | 110
CC(c1nnc(SCC(=O)Nc2ccccc2Br)n1C)N1C(=O)COc2ccccc21 (configuration not stated) | 105
Cc1sc(-c2nnc(C3CC3)o2)cc1NC(=O)C1CCC1 | 101
CCc1cc(C2CCCN2S(=O)(=O)c2cccc(Cl)c2)on1 (configuration not stated) | 106
CC(C)c1cc(C2CCCN2C(=O)Nc2ccc3c(c2)OCCO3)on1 (configuration not stated) | 100
O=C1c2cc(-c3nc(-c4ccc(F)cc4)[nH]c3-c3ccccc3)ccc2-c2ccc([N+](=O)[O-])cc21 | 103
COc1cccc(CNC(=O)c2ccc(-c3noc(C4CCCN(C(=O)c5ccccc5)C4)n3)cc2)c1 (configuration not stated) | 101
CC1=NN(c2ccc(Cl)c(C(=O)O)c2)C(=O)/C1=C/c1cccc(OC(=O)c2cccs2)c1 | 92
COc1ccccc1N1CCN(C(=O)c2sc3ncn(CC(=O)N4CCC(C)CC4)c(=O)c3c2C)CC1 | 108
O=C(CN1C(=O)/C(=C2\SC(=S)N(CCS(=O)(=O)O)C2=O)c2ccccc21)Nc1cccc(C(F)(F)F)c1 | 101
CCCCN1C(=O)c2ccccc2CC1(C)C(=O)NCc1ccc(OC)cc1 (configuration not stated) | 105
O=C(COc1ccccc1)NN=C1CSc2sc(=O)sc2SC1 | 109
COc1ccccc1CNC(=O)CSc1nc2[nH]ncc2c(=O)n1-c1cccc(C(F)(F)F)c1 | 105
COCCNC(=O)c1ccc2c(=O)n(Cc3ccc(Cl)cc3)c(SCc3cc(C(C)=O)ccc3OC)nc2c1 | 107
CC(Sc1nnc2c3ccccc3nc(-c3ccccc3)n12)C(=O)N1CCCC1 (configuration not stated) | 104
SMILES | GIV Gai3 FP
Cc1cc[n+](C2C(c3ccc([N+](=O)[O-])cc3)C(C#N)=C([S-])NC2(O)C2CC2)cc1 (configuration not stated) | 111
CCc1ccc(S(=O)(=O)Nc2ccc3oc4c(c3c2)CCC(C)C4)cc1 (configuration not stated) | 114
CN(Cc1ccccc1)S(=O)(=O)c1cccc(-c2nc(-c3ccccc3)no2)c1 | 102
O=C(Nc1ccc2c(c1)OCO2)N1CCCCCC1c1cccs1 (configuration not stated) | 105
FC(F)(F)c1cccc(C2N(Cc3ccccc3)CCN2Cc2ccccc2)c1 | 113
CC(C)NC(=O)c1nc(-n2cnnc2)ccc1Br | 105
COc1ccc(/C=C\C(=O)Nc2c3c(nn2-c2ccc(Cl)cc2)CS(=O)(=O)C3)cc1OC | 107
COc1ccc(CNc2ccc(C(=O)N3CC(C)CC(C)C3)cc2S(=O)(=O)Nc2cccc(OC)c2)cc1 (configuration not stated) | 116
O=C(Nc1nnc2n1CCS2)C1c2ccccc2Oc2ccccc21 | 99
Cc1cc(C)c(C#N)c(SCCS(=O)(=O)c2ccc(C(C)(C)C)cc2)n1 | 104
COc1ccc(N2CCN(S(=O)(=O)c3cc(-c4nnc(C5CC5)o4)co3)CC2)cc1 | 99
CC(=O)Nc1ccc(-n2c(C)nc3ccccc3c2=O)cc1 | 101
CC(=O)Nc1ccc(-c2noc(C3CCCN(C(=O)c4cccc(Br)c4)C3)n2)cc1 (configuration not stated) | 100
Cc1[nH]nc2nc(SCc3cc(=O)n4ccccc4n3)n(-c3ccc(Br)cc3)c(=N)c12 | 104
COc1cccc(-n2c(=S)sc3c2nc(SCC(=O)Nc2ccc(N(C)C)cc2)n2c4ccccc4nc32)c1 | 98
CCC(=O)NC1=NC(=O)/C(=C/c2cc3c(cc2Br)OCO3)S1 | 106
S=c1sc2c(s1)SCC(=NNc1ccccc1)CS2 | 107
Cc1nc(-c2cc(NC(=O)Cc3ccc(Br)cc3)c(C)s2)no1 | 99
O=C(OCCN=C1NS(=O)(=O)c2ccccc21)C1CC(=O)N(c2ccc3ccccc3c2)C1 (configuration not stated) | 114
O=C(NCc1ccco1)C1CCN(c2cncnc2N2CCCCC2)CC1 | 105
N#Cc1c(N)nc(SCC(=O)Nc2cccc([N+](=O)[O-])c2)c(C#N)c1-c1cccs1 | 110
COc1ccc(C2CC(C(F)(F)F)n3nc(C(=O)NCc4ccc5c(c4)OCO5)cc3N2)cc1OC (configuration not stated) | 101
COc1cccc(C(=O)N2CCN(c3nc4ccc(F)cc4s3)CC2)c1 | 102
COCCNS(=O)(=O)c1cc(-c2nc(C)cs2)n(CC(=O)N2CCCCC2)c1 | 102
CCOC(=O)c1c(C)n(C)c2cc(CN(C)C)c(O)c(S(=O)(=O)c3ccc(C)cc3)c12 | 111
SMILES | GIV Gai3 FP
CC1CCCN(C(=O)c2ccc(N3CC4CC(C3)c3cccc(=O)n3C4)c(NC(=O)Cc3c(F)cccc3Cl)c2)C1 (configuration not stated) | 114
COc1ccc(/C=C2/SC(=S)N(CN3CCCCC3C)C2=O)cc1 (configuration not stated) | 124
CNc1ncnc2c1cnn2-c1ccc(F)cc1 | 102
Cn1nc(-c2ccccc2F)c2cc(C(=O)OCc3ccc4c(c3)OCO4)sc21 | 103
OC(CN1CCCCC1)Cn1c2ccc(I)cc2c2cc(I)ccc21 (configuration not stated) | 105
COc1ccc(C2C(C#N)=C(N)Oc3n[nH]c(C)c32)cc1CSc1nc2ccccc2o1 (configuration not stated) | 96
C=CCNC(=O)c1cc2sccc2n1C | 102

Not a retest: 14 of the compounds above.
SMILES | GIV Gai3 FP
O=C(OCCN=C1NS(=O)(=O)c2ccccc21)C1CC(=O)N(c2ccc3ccccc3c2)C1 (configuration not stated) | 114
O=C(NCc1ccco1)C1CCN(c2cncnc2N2CCCCC2)CC1 | 105
N#Cc1c(N)nc(SCC(=O)Nc2cccc([N+](=O)[O-])c2)c(C#N)c1-c1cccs1 | 110
COc1ccc(C2CC(C(F)(F)F)n3nc(C(=O)NCc4ccc5c(c4)OCO5)cc3N2)cc1OC (configuration not stated) | 101
COc1cccc(C(=O)N2CCN(c3nc4ccc(F)cc4s3)CC2)c1 | 102
COCCNS(=O)(=O)c1cc(-c2nc(C)cs2)n(CC(=O)N2CCCCC2)c1 | 102
CCOC(=O)c1c(C)n(C)c2cc(CN(C)C)c(O)c(S(=O)(=O)c3ccc(C)cc3)c12 | 111
CC1CCCN(C(=O)c2ccc(N3CC4CC(C3)c3cccc(=O)n3C4)c(NC(=O)Cc3c(F)cccc3Cl)c2)C1 (configuration not stated) | 114
COc1ccc(/C=C2/SC(=S)N(CN3CCCCC3C)C2=O)cc1 (configuration not stated) | 124
CNc1ncnc2c1cnn2-c1ccc(F)cc1 | 102
Cn1nc(-c2ccccc2F)c2cc(C(=O)OCc3ccc4c(c3)OCO4)sc21 | 103
OC(CN1CCCCC1)Cn1c2ccc(I)cc2c2cc(I)ccc21 (configuration not stated) | 105
COc1ccc(C2C(C#N)=C(N)Oc3n[nH]c(C)c32)cc1CSc1nc2ccccc2o1 (configuration not stated) | 96
C=CCNC(=O)c1cc2sccc2n1C | 102

Not all compounds are listed, so the mix of outcomes need not match the whole.
